# From PubChem
# ClpP mod – qHTS Assay for Activators of ClpP | purified B. subtilis ClpP, FRET peptide cleavage, 20 min | Potency, µM (doses to about 57.5 µM), for the others: at the highest dose activity change, negative = active | actives 1.9% (n = 340,000) | AID 651965, 2013; active = well fitted falling curve with a large enough effect; inconclusive = small, poorly fitted or top-dose-only effect; inactive = no such curve, though single readings can be large or run the other way; also: potency is read from the fitted curve at half-maximal effect; the source files actives as falling curves though it sought activators and does not explain the sign; nearly all actives have a fitted effect of over 65% in size; many hits overshoot -100%
# Target sequence (P80244 whole entry, looked up): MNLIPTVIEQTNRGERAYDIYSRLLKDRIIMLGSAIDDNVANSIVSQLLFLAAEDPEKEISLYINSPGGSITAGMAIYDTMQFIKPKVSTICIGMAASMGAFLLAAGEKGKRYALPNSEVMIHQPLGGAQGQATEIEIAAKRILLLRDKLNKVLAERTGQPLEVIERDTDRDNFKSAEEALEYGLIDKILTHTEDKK
#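 Purified B. subtilis ClpP, 10 microg/mL final in Tris/HCl pH8 with KCl, BSA, glycerol and Tween-20, cleaved an Abz/nitrotyrosine-quenched decapeptide. Fluorescence (ex 320, em 430) was read at 0 and 20 min at room temperature. Delta was normalized to 5.8 microM ADEP and DMSO/no-enzyme controls.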
# Menin-MLL FL inh – inhibitors of human menin-MLL interaction, wild-type MLL peptide. Fluorescence polarization, fluorescein-MLL peptide displacement from menin. FP activity change, % at 61.4 µM. 290,000 tested, under 10 active; inconclusive = falling polarisation curve, or a change in total fluorescence; inactive = total fluorescence flat and polarisation flat or rising; no compound was filed as active; the % refers to the polarisation; negative = inhibition;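 also: % of control where 0% means no effect; inhibitors lower the polarisation; unlabelled MLL peptide was the positive control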
# TRPML1 inh – inhibitors of human TRPML1 channel; TRPML1-inducible cells, Ca2+ dye fluorescence, FDSS; active compounds read low; inhibition of EC80 agonist-evoked calcium signal; activity change, negative = inhibition, % (no concentration beside the values); actives 0.02% (n = 390,000); AID 624415; in the data active means activity change below about -50%; inconclusive means about -30% to -50%; inactive means above about -30%;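 also: stimulus is agonist 54-4 at its EC80 concentration; % is scaled to controls: 0 for no effect and ±100 for the full control effect; compound concentration not given in the record; the text of the record puts the active cut at -80%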
# Target sequence (Q9GZU1 whole entry, looked up): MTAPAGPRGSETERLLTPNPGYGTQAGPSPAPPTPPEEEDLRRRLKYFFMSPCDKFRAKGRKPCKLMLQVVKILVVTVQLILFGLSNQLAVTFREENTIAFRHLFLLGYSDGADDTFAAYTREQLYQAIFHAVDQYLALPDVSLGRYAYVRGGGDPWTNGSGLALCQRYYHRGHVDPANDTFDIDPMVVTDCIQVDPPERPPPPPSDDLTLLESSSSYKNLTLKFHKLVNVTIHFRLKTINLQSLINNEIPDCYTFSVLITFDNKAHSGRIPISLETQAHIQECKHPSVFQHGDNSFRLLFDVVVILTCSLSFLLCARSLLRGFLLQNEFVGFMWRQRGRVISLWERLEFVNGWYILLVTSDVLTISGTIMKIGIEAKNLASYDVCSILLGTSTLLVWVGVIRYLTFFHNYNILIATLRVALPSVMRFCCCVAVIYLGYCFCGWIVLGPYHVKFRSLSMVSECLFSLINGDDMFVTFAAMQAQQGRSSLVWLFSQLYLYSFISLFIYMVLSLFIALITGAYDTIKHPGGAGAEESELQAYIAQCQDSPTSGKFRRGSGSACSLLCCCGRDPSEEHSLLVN
#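 Calcium fluorescence in TRPML1-DL cells induced overnight with Tet: a 110 s read after compound pin addition, then a 110 s antagonist read after challenge with 54-4 at 4 uM final (EC80).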
# TRPML1 agonist – activates the human TRPML1 channel; activation, % (test concentration not listed); actives 0.12% (n = 410,000); TRPML1-expressing cells, Ca2+ dye fluorescence, FDSS; host cell line not named in the record; reference of the full effect not given here; Q9GZU1; in the data active = activation above about 50%; inconclusive = about 30% to 50%; inactive = below about 30%; also: 0% is about no effect; the text of the record puts the active cut at 80%
#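 Tet-induced TRPML1-DL cells, 1,500 per well, cultured overnight, were loaded with a no-wash Ca2+ dye for 45–90 min. Calcium fluorescence was recorded on the FDSS for 110 s after compound addition, before the EC80 agonist (4 uM 54-4) was added.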
# gsp ag – gsp mutant agonism. gsp mutant cells, cAMP HTRF, 30 min; control for the full effect not named in the record. Potency, µM (top dose mostly 76.9 µM), inactives show at the highest dose activation (cAMP increase), most hits filed as activators. actives 0.13% (n = 340,000); active = well fitted activation curve with a large enough effect; inconclusive = small, poorly fitted or top-dose-only effect, or another doubt; inactive = no such curve, though single readings can be large or run the other way; cell line not stated here;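 also: phosphodiesterase inhibitor Ro 20-1724 added with compounds to block cAMP breakdown; potency is read from the fitted curve at half-maximal effect; nearly all actives have a fitted effect of over 60% in size; about a fifth of the inactives were tested at one dose only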
#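 Cells stably selected in G418 were plated at 2000/well, grown 16-24 hr, then given compounds in DMSO with the PDE inhibitor […] (300 uM solution added) for 30 min at 37C; cAMP was read by HTRF.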
# gsp antag – antagonists of gsp mutant (McCune-Albright syndrome); gsp-mutant cells, cAMP HTRF, 30 min; control for the full effect not named in the record; Potency, µM (highest dose often 76.9 µM), inactives show top-dose activity change, negative = inhibition, most hits filed as inhibitors; actives 0.4% (n = 340,000); AID 624288; active = falling curve of any shape with a large fitted effect; inconclusive = falling curve, mostly with a smaller effect; inactive = flat or rising curve; cell line not stated here;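 also: intracellular cAMP measured with PDE inhibitor Ro 20-1724 present during compound exposure; potency is read from the fitted curve at half-maximal effect; % is scaled to controls: 0 for no effect and ±100 for the full control effect; nearly all actives have a fitted effect of over 65% in size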
#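 HTRF cAMP measurement after 30 min RT detection following 30 min, 37C compound treatment alongside […] (added as 300 uM solution) in G418-selected cells seeded at 2000/well and grown 16–24 h.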
# * = called active by the depositor; ? = inconclusive; nt = not tested or not shown; & = joins results of further samples; [ ] = another dose, or the depositor's remark.
SMILES,ClpP mod,Menin-MLL FL inh,TRPML1 inh,TRPML1 agonist,gsp ag,gsp antag
CN1OC[C@@H]2CN(C(=O)C(C)(C)C)[C@H](c3cccc(-c4ccccc4)c3)C[C@@H]21,1.6%,nt,43,1.7,nt,1%
O=C(Nc1ccc2nc(SCc3ccccc3)sc2c1)c1ccccc1F,-20%,nt,14,-0.3,nt,nt
COc1ccc(S(=O)(=O)N(C)CC(=O)NCCCN2CCOCC2)cc1C,nt,nt,15,0.7,11%[15.4 µM],1%
O=C(N/N=C/c1ccncc1)c1sc2ccccc2c1Cl,-1.2%,nt,-13,0.4,20%,2%
CC1(C)Cc2c(sc(NC(=O)c3ccc(C(=O)c4ccccc4)cc3)c2C(N)=O)C(C)(C)N1,16%,nt,3,0.0,30%,-11%
Cc1ccc(C)c(C(C)NC(=O)c2ccccc2Br)c1 (configuration not stated),-2.3%,8.7,-10,0.2,-7%,5%
COc1cc(OC)nc(NC(=O)NS(=O)(=O)c2ccc(F)cc2)n1,nt,0.0,-11,-0.8,25%[15.4 µM],6%
CCOC(=O)N1CCN(Cc2nc3cc(NC(=O)CC)ccc3n2CC)CC1,-0.2%,-5.2,12,1.1,2%,-1%
O=C(COc1ccc(Cl)cc1)OCC(=O)N1CCOCC1,1.3%,nt,24,1.7,?,-4%
CCOC(=O)N1CCN(C(=O)CSCc2ccccc2C)CC1,0.8%,4.0,-7,-1.2,-29%,4%
O=C(O)c1cccc(NC(CNS(=O)(=O)c2ccc(Cl)cc2)c2ccccc2)c1 (configuration not stated),nt,5.4,29,-0.3,6%[15.4 µM],-14%
COc1ccc(OC)c(NC(=O)c2ccc(CSc3ncccn3)cc2)c1,nt,2.3,28,2.9,15%[15.4 µM],?
NS(=O)(=O)c1ccc(CNC(=O)Cc2c(F)cccc2Cl)cc1,nt,0.1,-3,0.2,10%,8%
Cc1cccc(NC(=O)CCS(=O)(=O)c2cc(Br)cc3c2N(C(=O)C2CC2)CC3)c1C,-0.6%,nt,18,-0.4,nt,nt
COc1ccc(C(C)(C)C)cc1NC(=O)c1ccc2c(c1)SC1=NS(=O)(=O)CCN12,nt,-2.7,2,-0.1,-8%,9%
CCC(Sc1nc(=O)cc(N)n1-c1cccc(C)c1)C(=O)Nc1cc(C)on1 (configuration not stated),-1.3%,6.1,0,0.0,-6%,-15%
O=C(Oc1cccc(/C=N/Nc2nc(Nc3ccccc3)nc(N3CCOCC3)n2)c1)c1ccco1,-3.2%,-0.5,13,1.5,-22%,-27%
Cc1nccc(-c2ccc(-n3cnc4ccccc43)cc2)n1,-2.3%,3.8,10,-1.0,?,-20%
CCO[C@@H]1OC(C(=O)N2CCCCCCC2)=C[C@H](c2csc3ccccc23)[C@H]1CCCO,-0.9%,0.7,10,0.4,nt,-18%
O=C(Cn1cnc2c(NCc3ccccc3)ncnc21)NCc1nc2ccccc2[nH]1,0.6%,nt,-5,-0.5,nt,-6%
NC(=O)c1ccc[n+](CC(=O)Nc2ccccc2C(=O)O)c1,nt,1.7,-4,-0.5,2%,10%
CC1CCCCN1CCCNC(=O)c1ccc2c(c1)NC(=O)CN2C (configuration not stated),-14%,nt,-6,0.2,-19%,nt
CN1CCN(NC(=O)c2ccc(S(=O)(=O)N3CCCCCC3)cc2)CC1,nt,-1.1,11,1.0,2%[15.4 µM],10%
Cc1cc(NC(=O)CSc2nc(-c3cccs3)cc(C(F)(F)F)n2)no1,?,-1.4,-7,1.5,-2%,9%
CN(C)S(=O)(=O)c1ccc(Cl)c(NC(=O)COC(=O)CNS(=O)(=O)c2c(F)cccc2F)c1,0.8%,nt,-18,-0.9,-25%,-29%
CCOC(=O)C1(C)/C(=N/Nc2ccc(S(N)(=O)=O)cc2)C(=O)C(=O)N1c1ccccc1 (configuration not stated),nt,6.5,9,-0.3,10%[15.4 µM],-20%
CCc1nnc(NS(=O)(=O)c2ccc(NS(=O)(=O)c3ccccc3[N+](=O)[O-])cc2)s1,-0.8%,-0.2,-7,0.2,2%,4%
O=C(NCc1ccccc1Cl)C1CCCN(S(=O)(=O)c2cccc3nsnc23)C1 (configuration not stated),-0.2%&-0.6%,7.1,-5&7,-1.4&0.4,-37%[inhibitor],-22%
COCCCNC(=O)c1[nH]c2cc(OC)ccc2c1Sc1ccc(C)cc1,-11%,nt,1,2.3,nt,nt
CCCc1nnc(SCC(=O)NC2CC2)n1CC,nt,-1.3,-10,-0.3,8%[15.4 µM],9%
Cc1cc(NC(=O)Cn2c(=O)c3c(ncn3CC(C)C)n(Cc3ccccc3)c2=O)no1,0.6%,-0.9,4,-0.4,-7%,-1%
Clc1ccc(Oc2cnns2)cc1Cl,-1.4%,36[activator],-3,0.1,-69%[inhibitor],8%
Cc1cc(C(=O)OCC(=O)NCc2ccc(F)cc2)c2ccccc2n1,-13%,nt,22,0.2,?,-1%
CC(NC(=O)C1CCN(C(=O)c2ccc(F)cc2)CC1)c1ccc(S(N)(=O)=O)cc1 (configuration not stated),0.9%,nt,12,-0.5,-2%[15.4 µM],1%
Oc1c(/C=N/c2ncn[nH]2)ccc2ccccc12,0.2%,8.5,-7,-0.9,-22%,?
COc1ccc(-c2nn(-c3ccc(C)c(Cl)c3)c3c2cnc2cc(OC)c(OC)cc23)cc1,-26%,nt,2,0.3,nt,nt
CC(O)(c1cccnc1)c1nc(-c2cccc3cccnc23)cs1 (configuration not stated),?,nt,-1,-0.1,nt,nt
C=CCNC(=O)c1cc(-c2ccncc2)nc2c(C)cc(C)cc12,4.0%,0.5,16,-0.1,25%,-20%
COc1ccccc1NS(=O)(=O)c1cccc(NC(=O)Cc2cccs2)c1,-3.6%,31[activator],-5,0.1,10%[15.4 µM],-2%
Nc1cc(C(=O)OCC(=O)NCCNC(=O)COC(=O)c2ccc(Cl)c(N)c2)ccc1Cl,nt,-1.9,27,0.2,-19%,-7%
COc1ccc(/C=C(\C#N)c2nc(-c3cc4ccccc4oc3=O)cs2)cc1OC,-2.6%,nt,-4,-0.9,nt,nt
CCN(CC(=O)Nc1ccccc1C(F)(F)F)CC(=O)NC1CC1,1.0%,nt,15,1.9,-28%,20%
O=C(c1cnn(C(=O)CN2CCCC2=O)c1)c1ccccc1O,42%,nt,1,0.4,-8%,1%
CCOc1cccc2cc(C(=O)N3CCOCC3)c(=O)oc12,-8.1%,4.0,0,-0.3,-15%,-16%
Cc1ccc2c(C(=O)CNc3nncs3)c(C)[nH]c2c1,-1.9%&-4.6%,-1.2,-1,-0.7&0.0,-3%,-13%
O=C(Nc1ccc(F)cc1F)N1CCCCCC1,-0.7%,-3.9,32,0.4,-24%,3%
Cc1cc(OCC(=O)Nc2ccccc2C)no1,0.4%,nt,-3,0.0,-9%,9%
Cc1onc(-c2c(Cl)cccc2Cl)c1C(=O)NC(C)(C)CO,-3.5%,1.2,43,0.3,5%,-4%
CCc1ccc(NC(=O)COC(=O)CC2CCCC2)cc1,-6.0%,nt,0,-0.2,-51%[inhibitor],3%
O=C1CNC(=S)N1c1nc2ccccc2s1,-0.4%,9.1,5,-0.1,-1%[15.4 µM],17%
Cc1ccc(S(=O)(=O)c2nc(NC3CCS(=O)(=O)C3)sc2Cl)cc1 (configuration not stated),-2.2%,-0.8,15,-0.4,1%,0%
Cc1cc(C)n2cc(CSCc3ccco3)nc2n1,?,3.7,13,5.2,-36%,19%
CC(O)CN(CC(C)O)c1ccc2c(c1)Cc1cc([N+](=O)[O-])ccc1-2 (configuration not stated),1.1%,nt,6,83*,27%,-9%
Cc1cc(C(=O)Nc2ccc(-n3c(C)nc4ccccc4c3=O)cc2)ccc1[N+](=O)[O-],1.4%,nt,18,0.2,nt,nt
Cc1ccc(C(=O)Nc2ccc3c(c2)C(=O)N(C)C3=O)c(C)c1,5.2%,-5.4,-5,-0.3,35µM*,8%
CCOc1ccccc1N1CCN(C(=O)CCNS(=O)(=O)c2ccccc2F)CC1,-2.1%,nt,69,-0.7,-24%,12%
CCOC(=O)C1CCN(C(=O)c2cc3cc(C)ccc3[nH]2)CC1,-9.1%,-0.1,-6,-0.4,-32%,-3%
CCOc1ccc(OCC)c(NC(=O)C2CCCN(C(=O)c3ccc(Cl)cc3)C2)c1 (configuration not stated),-1.4%,nt,-23,-0.2,-7%,-15%
Cn1c(Cn2c(=O)sc3ccccc32)nnc1SCC(=O)N1CCN(c2ccccc2)CC1,0.9%,1.8,-20,1.1,-22%,-15%
CN(C)/C=C(\c1cnc(Cl)s1)S(=O)(=O)c1ccccc1,-1.1%,1.3,-5,0.0,0%,7%

# New compounds follow:
SMILES,ClpP mod,Menin-MLL FL inh,TRPML1 inh,TRPML1 agonist,gsp ag,gsp antag
OCC(O)C(O)C(O)C(O)C1NCCS1 (configuration not stated),-0.3%,1.6,-8,-0.1,-1%,5%
Cc1ccccc1NCc1ccc(O)c2ncccc12,3.7%,1.7,13,1.1,3%,0%
CC(C)[C@H](CN1CCC[C@H]1CN1C(N)=NC[C@H]1C(C)C)N1C[C@@H](Cc2ccccc2)N(CCCC2CCCC2)C1=N,2.5%,nt,23,-0.4,nt,9%
CCCCOC(=O)c1ccc(NC(=O)c2ccc3c(c2)CCN3S(=O)(=O)c2ccccc2)cc1,-10%,nt,2,1.1,nt,nt
CS(=O)(=O)c1ccc(C(=O)OCC(=O)Nc2cccnc2Cl)cc1[N+](=O)[O-],0.0%,nt,0,2.8,?,-19%
CC(C)CNC(=S)N(CCO)Cc1cc2cc3c(cc2[nH]c1=O)OCO3,3.9%,-8.0,16,0.7,-10%,-7%
COc1ccc(Cl)cc1S(=O)(=O)n1cnc2ccccc21,0.5%,7.6,4,-0.7,37%,-20%
COCCN(CCOC)S(=O)(=O)c1ccc(C(=O)Nc2nnc(COC)o2)cc1,-0.4%,0.9,1,4.3,?,4%
COc1ccc(OC)c(Nc2nc(-c3sc(NC(=O)C(C)(C)C)nc3C)cs2)c1,?,0.2,-15,0.1,nt,-4%
CN(C)S(=O)(=O)N1CCN(CC(=O)Nc2ccc(F)cc2)CC1,0.7%,0.5,nt,nt,7%,4%
CN1CCN(NC(=S)NC2CCCCC2)CC1,-1.7%,0.0,10,-0.3,5%,6%
O=C(CCC(=O)N(CC(=O)NC1CCCC1)Cc1cccs1)Nc1nccs1,0.1%,-7.9,51,-1.3,1%[15.4 µM],8%
COCCN(C(=O)COC(=O)/C=C/c1ccco1)c1c(N)n(Cc2ccccc2)c(=O)[nH]c1=O,1.5%,6.7,3,0.0,-29%,6%
O=[N+]([O-])c1ccc(NCCCN2CCOCC2)c(Cl)c1,-0.4%,-2.8,-1,0.2,-54%[inhibitor],8%
CCCc1c(C(=O)N/N=C/c2cccs2)nnn1-c1nonc1N,-2.3%,2.5,12,0.6,30%,-7%
